# TsaE inh – qHTS Assay for Inhibitors of YjeE; tRNA threonylcarbamoyladenosine biosynthesis protein TsaE (Escherichia coli (strain …; purified YjeE, fluorescence polarisation of a bound ADP probe; Potency, µM; actives 0.05% (n = 71,000); AID 605, 2007; active = well fitted falling curve; inconclusive = weaker or top-dose-only fall, or a rising curve; inactive = flat or poorly fitted curve;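 further: top concentration of the series not given in the record; excess ADP was the control for the full effect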
#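 Purified YjeE (10 uM) with BODIPY Texas Red-labeled ADP probe (2 uM); compounds pin-transferred, 15 min at room temperature. Binding inhibition read as decreased fluorescence polarization; ADP titration as control.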
# PK Bst – Pyruvate Kinase; AID 361, 2006; actives 1.2% (n = 51,000); partly purified Bacillus stearothermophilus pyruvate kinase, luminescence ATP production; ribose 5-phosphate activator present at AC10; Potency, µM; in the data active means potency below about 11 µM; inconclusive means mostly about 12 µM to 25 µM; inactive means weaker than that;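 the screen sought inhibitors and activators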;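 further: potency means the concentration at half of the fitted maximal effect; scaled between full activation by ribose 5 phosphate and full inhibition by luteolin; about four in five hits inhibit and the cells do not say which; series up to 57 µM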
# * marks the source's active call; other numbers are inactive results; i = inactive; u = inconclusive; x = not tested or not shown.
SMILES,TsaE inh,PK Bst
Cc1ccc2nc(C3CCN(CC(=O)Nc4ccc5c(c4)OCCO5)CC3)[nH]c2c1,i,>57
Cc1nc(SCC(=O)c2c[nH]c3ccccc23)n[nH]1,i,>57
COc1ccccc1C(=O)N1CCN=C1c1ccccc1,i,>57
COc1cc(C(=S)N2CCC(C(N)=O)CC2)ccc1O,i,>57
CCOC(=O)C1=C(C)NC(C)=C(C(=O)OCC)C1c1ccc(O)cc1,i,x
CCc1nnc(NC(=O)CSc2nnc(-c3c[nH]c4ccccc34)n2CC)s1,i,>57
O=C(COC(=O)C1CCCN1C(=O)c1cccs1)c1ccccc1 (configuration not stated),i,>57
NS(=O)(=O)c1ccc(CCNC(=O)NC2(C(F)(F)F)Oc3ccccc3O2)cc1,i,>57
Cc1ccc(S(=O)(=O)N(CC(=O)NCc2ccco2)Cc2ccccc2F)cc1,i,u
CCN1C(=O)/C(=C2/SC(C)=C(C)N2CC)SC1=S,i,>57
CCN(CC(=O)NC(C)C)C(=O)CCNC(=O)c1ccc(Cl)cc1,i,>57
Cc1nc2sc(C(c3cccs3)N3CCN(c4cccc(Cl)c4)CC3)c(O)n2n1 (configuration not stated),i,x
O=C(Nc1ccccc1O)c1ccc(Cl)cc1,i,x
COc1ccc(S(=O)(=O)N(CCCN2CCCC2=O)Cc2cc3c(C)ccc(C)c3[nH]c2=O)cc1,i,>57
CCOC(=O)Cc1csc(NC(=O)Nc2ccccc2)n1,i,x
COCCCn1c2nc3ccccc3nc2c2c(=O)n(Cc3ccc(Cl)cc3)cnc21,i,>57
Cc1c(NC(=O)CSc2nc(-c3ccco3)cc(C(F)(F)F)n2)c(=O)n(-c2ccccc2)n1C,i,>57
CC(=O)N1CCN(CC(O)COc2ccc(OCc3ccccc3)cc2)CC1 (configuration not stated),i,>57
CCN(CC)S(=O)(=O)c1ccc(NC(=O)C(OC)c2ccccc2)cc1 (configuration not stated),i,>57
Cc1cccc(NC(=O)c2ccccc2NC(=O)C(C)(C)C)n1,i,>57
Cc1ccc(-c2nn(-c3ccccc3)cc2CN(Cc2ccccc2)C(=O)CCC(=O)O)o1,i,>57
O=C(Cn1c(=O)n(CC2CCCO2)c(=O)c2ccccc21)c1ccccc1 (configuration not stated),i,>57
COc1ccc(-n2nc3c(c2NC(=O)c2cc4ccccc4oc2=O)CS(=O)(=O)C3)cc1,i,>57
NS(=O)(=O)c1ccc(NC(=O)Nc2cccc3ccccc23)cc1,i,x
CN(Cc1ccccc1)S(=O)(=O)c1ccc2c(c1)n(C)c(=O)n2C,i,>57
CN(C)CCCc1cc(C(=O)Nc2ccc(-c3ccncc3)cc2)ccc1O,i,x
CCN(CC)C(=O)C1=C(C)NC(=O)NC1c1ccccc1F (configuration not stated),i,>57
CCCC(C(=O)NC1CCCCC1)N(CC1CCCO1)C(=O)CNS(=O)(=O)c1ccc(F)cc1 (configuration not stated),i,>57
Cc1cc(C)c(C#N)c(OCC(=O)c2ccccc2)n1,x,>26
COc1ccc(-c2cc3nc4n(c(=O)c3s2)CCOC4)cc1,x,6.7*
COc1ccccc1OCc1ccc(C(=O)N2CCN3CCCC3C2)cc1 (configuration not stated),i,>57
COc1ccc(-c2cc(C(F)F)n3ncc(C(=O)NCCCN4CCCC4=O)c3n2)cc1,i,x
CCOc1ccc2sc(NS(=O)(=O)c3ccc(OC)c(OC)c3)nc2c1,i,>57
O=C(c1ccc2c(c1)OCO2)N1CCN=C1SCc1ccccc1,i,x
CCOC(=O)CSC1=C(C#N)C(c2ccccc2OCC)C(C(=O)OCC)C(=O)N1 (configuration not stated),i,>57
CCOC(=O)N1CCC(Nc2cc(C)nc3c(-c4ccccc4OC)c(C)nn23)CC1,i,x
CCOC(=O)C(C)Sc1nc(-c2cccs2)ccc1C#N (configuration not stated),x,>26
O=S(=O)(NC1c2cccc3cccc(c23)C1N1CCN(CCO)CC1)c1ccccc1 (configuration not stated),i,u
COc1ccc(CNC(=O)c2cnc(C)cn2)c(OC)c1,i,>57
Cn1c(=O)c2c(nc(Cl)n2Cc2ccncc2)n(C)c1=O,i,>57
COc1ccc(N2CCN(C(=O)CCS(=O)(=O)c3cccc4nsnc34)CC2)cc1,i,>57
O=C(NCCNC(=O)C(c1ccccc1)c1ccccc1)c1ccco1,i,>57
N#CC1=C(N)SC(N)=C(C#N)C1c1ccc(C(F)(F)F)cc1,i,>57
CCSc1ccccc1C(=O)NCCCn1ccnc1,i,>57
Cc1c2cnccc2c(C)c2c1c1ccccc1n2CCOC(=O)c1ccccc1,i,x

# Looked up one by one from the list above (2):
SMILES,TsaE inh,PK Bst
CCOC(=O)CSC1=C(C#N)C(c2ccccc2OCC)C(C(=O)OCC)C(=O)N1 (configuration not stated),i,>57
O=S(=O)(NC1c2cccc3cccc(c23)C1N1CCN(CCO)CC1)c1ccccc1 (configuration not stated),i,u

# More structures follow.
SMILES,TsaE inh,PK Bst
C=C(C)Cn1c(COc2ccccc2)nnc1SCC(=O)O,i,x
C1CCc2c(nnc3c2-c2nonc2CC3)C1,i,>57
CCCn1c2c(c(O)c(C(=O)Nc3nc(C)cs3)c1=O)CCCC2,i,>57
CCc1nc(NCC2CCCO2)c(C#N)c2c1COC(C)(C)C2 (configuration not stated),x,>26
CS(=O)(=O)N1CCC2(CC1)CN(C(=O)Nc1cccc(F)c1)C2,u,x
Cc1ccnc(NS(=O)(=O)c2ccc(NC(=O)C3CCCO3)cc2)n1 (configuration not stated),i,x
CCCCCc1cc(O)c2c(C)cc(=O)oc2c1,i,x
CC(=O)Nc1cccc(N)c1,i,x
Cc1[nH]c2ccccc2c1CCO,i,>57
CCCOc1nc(N)c(C#N)c(-c2ccccc2F)c1C#N,i,>57
COc1ccc(-c2nnnn2C)cc1S(=O)(=O)NCCc1ccccc1,i,x
CCOc1ccc(NC(=O)N(CCN(C)C)C(C)c2ccncc2)cc1 (configuration not stated),i,x
COc1ccccc1OCCC(=O)OCC(=O)NC(=O)NC(C)(C)C,i,>57
CS(=O)(=O)c1ccc2nc(NC(NC(=O)c3ccco3)(C(F)(F)F)C(F)(F)F)sc2c1,x,>26
CCCC(C)C(=O)Nc1nnc(C)s1 (configuration not stated),i,x

# A section from the list above, for reference:
SMILES,TsaE inh,PK Bst
Cc1c2cnccc2c(C)c2c1c1ccccc1n2CCOC(=O)c1ccccc1,i,x
C=C(C)Cn1c(COc2ccccc2)nnc1SCC(=O)O,i,x
C1CCc2c(nnc3c2-c2nonc2CC3)C1,i,>57
CCCn1c2c(c(O)c(C(=O)Nc3nc(C)cs3)c1=O)CCCC2,i,>57
CCc1nc(NCC2CCCO2)c(C#N)c2c1COC(C)(C)C2 (configuration not stated),x,>26
CS(=O)(=O)N1CCC2(CC1)CN(C(=O)Nc1cccc(F)c1)C2,u,x
Cc1ccnc(NS(=O)(=O)c2ccc(NC(=O)C3CCCO3)cc2)n1 (configuration not stated),i,x
CCCCCc1cc(O)c2c(C)cc(=O)oc2c1,i,x
CC(=O)Nc1cccc(N)c1,i,x
Cc1[nH]c2ccccc2c1CCO,i,>57
CCCOc1nc(N)c(C#N)c(-c2ccccc2F)c1C#N,i,>57
COc1ccc(-c2nnnn2C)cc1S(=O)(=O)NCCc1ccccc1,i,x
CCOc1ccc(NC(=O)N(CCN(C)C)C(C)c2ccncc2)cc1 (configuration not stated),i,x
COc1ccccc1OCCC(=O)OCC(=O)NC(=O)NC(C)(C)C,i,>57
CS(=O)(=O)c1ccc2nc(NC(NC(=O)c3ccco3)(C(F)(F)F)C(F)(F)F)sc2c1,x,>26
CCCC(C)C(=O)Nc1nnc(C)s1 (configuration not stated),i,x

# Continued.
SMILES,TsaE inh,PK Bst
CCCCC(=O)N(CCOC)c1nnc(-c2ccc(OC)cc2)s1,i,>57
CCN(CC)CCNC(=O)C1CCN(S(=O)(=O)N2CCCCC2)CC1,i,>57
COc1ccc(-c2csc(NCc3ccco3)n2)cc1,i,4.6*
CCCCCN(C(=O)NC(=O)Nc1nncs1)S(C)(=O)=O,i,>57
OC(c1ccc(Cl)cc1)c1nnc(-c2ccccc2)o1 (configuration not stated),i,x
Oc1ccc(Br)cc1CN1CCCCCCC1,i,x
Cc1ccc2cc(C#N)c(NCCCNC(=O)C3CCCO3)nc2c1 (configuration not stated),i,x
COc1ccc(N2CCN(C(=O)CSc3nnc(COc4cccc5cccnc45)o3)CC2)cc1,i,>57
CCCCCCn1c(CN2CCCCC2CC)nc2c1c(=O)n(C)c(=O)n2C (configuration not stated),i,x
Cc1nc2cc(NC(=O)N(C)c3ccc4ccccc4c3)ccc2o1,i,i
CCOc1ccccc1NC(=O)Cn1nnc(-c2ccc(OCC)c(OCC)c2)n1,i,>57
COc1ccc(N(CC(=O)NC2CCCCCCC2)S(=O)(=O)c2c(C)nn(C)c2C)cc1,i,x
O=C(Nc1nc2ccccc2n1Cc1ccccc1)c1ccco1,i,>57
O=C(COc1ccc(S(=O)(=O)N2CCOCC2)cc1)NC1CCCC1,i,>57
COc1ccccc1-c1ccc2ncnc(N(C)Cc3ccco3)c2c1,i,x
CN(C)CCCNC(=O)CCC1CCCCC1,i,x
COc1ccccc1N1CCN(C(=O)COc2ccc(Cl)cc2Br)CC1,i,x
O=C1CC(N2CCN(CCc3ccccn3)CC2)C(=O)N1c1ccc(Cl)cc1 (configuration not stated),i,>57
Cc1cc(N2CCN(C)CC2)nc(N2CCOCC2)n1,i,>57
N#Cc1nc(-c2ccccc2Cl)oc1NCc1ccco1,i,>57
COC(=O)c1ccc(CC(=O)c2c(C)cc(O)cc2O)o1,i,>57
CCCC/C=C/C(NC(=O)c1ccccc1)c1ccccc1 (configuration not stated),i,x
Cc1cc(C(F)(F)F)c(C#N)c(SCC(=O)NC2CC2)n1,x,>26
CC(C)OC(=O)CCCCCN1C(=O)CSC1=S,i,>57
CN(C)C(=O)N1CCCC(C(=O)NCc2cccs2)C1 (configuration not stated),i,>57
O=C(NCc1ccc(Cl)cc1)c1cccnc1,i,x
Cc1cnc(N)c2c(=O)oc3ccccc3c12,i,x
CCC(=O)Nc1cc(-c2nn(C)c(=O)c3ccccc23)ccc1OC,i,>57
Nc1nnc(Cc2c[nH]c3ccccc23)s1,i,i
Cc1cccc(N2CCN(c3nc4ccccc4n4cnnc34)CC2)c1C,i,x
Cc1ccccc1-n1c(SCC(=O)N2CCCC2)nnc1-c1ccccn1,i,>57
CC(=O)c1ccc(N2CCN(S(=O)(=O)c3cccc(S(=O)(=O)N4CCOCC4)c3)CC2)cc1,i,>57
COC(=O)[C@H]1C[C@@H]1[C@H](NS(=O)(=O)c1ccc2ccccc2c1)c1ccccc1,i,x
COCCn1c(=O)c(CCc2ccccc2)nc2cnc(Nc3ccccc3)nc21,i,x
CCOC(=O)C(NC(=O)c1ccccc1)(N1CCOCC1)C(F)(F)F (configuration not stated),i,>57
O=C(O)CC(C(=O)OC1CCCCC1)N1CCOCC1 (configuration not stated),i,>57
Cc1ccc(Nc2nc(N)nc(CN3CCN(C(=O)c4ccco4)CC3)n2)cc1Cl,i,>57
COc1cc(C(=O)N2CCN(C(=O)c3ccccc3)CC2)cc(OC)c1OC,i,>57
COc1ccc2nc(C)c(C(=O)OCCN(C)C)cc2c1,i,>57
CCOC(=O)N1CCN(C(=O)C2CCN(S(=O)(=O)CC)CC2)CC1,i,>57
c1cncc(-c2nnc3sc(C4CCCCC4)nn23)c1,x,>26
COc1cc(C(=O)Nc2cc(-c3nc4cc(C)ccc4o3)ccc2C)cc(OC)c1OC,i,x
CCOc1ccc(OCCSc2nc(C)cc(=O)[nH]2)cc1,i,x
CCOc1ccccc1N(CC(=O)Nc1ccc2c(c1)OCCO2)S(C)(=O)=O,i,>57
CCCCn1c(SCC(=O)N2CC(C)CC(C)C2)nc2cc(S(N)(=O)=O)ccc21 (configuration not stated),i,>57
Cc1ccccc1-c1noc(-c2cccs2)n1,i,x
CCn1c(COc2ccc(C)cc2)nnc1SCC(=O)Nc1ccc2c(c1)OCCO2,i,>57
N#CCCN1CCN(S(=O)(=O)c2ccc(S(=O)(=O)NC3CC3)cc2)CC1,i,x
COC(=O)c1ccc(NC(=O)C2CCCN(S(=O)(=O)c3cnc[nH]3)C2)cc1 (configuration not stated),i,x
O=C(CCn1c(=S)[nH]c2ccccc2c1=O)N1CCN(c2ccccn2)CC1,i,>57
CCOC(=O)c1cccc(Nc2nc(C)cc(C)n2)c1,i,>57
O=S(=O)(NCc1ccc2c(c1)OCO2)c1cccc2nsnc12,i,>57
CN1CCN(C(=O)c2c(O)c3cccc4c3n(c2=O)CCC4)CC1,i,>57
CCOC(=O)C1=C(C)Nc2ncnn2C1c1ccc(N(C)C)cc1 (configuration not stated),i,>57
Cc1ccc(CN2C(=O)CCC2C(=O)NCCCN2CCCC(C)C2)cc1 (configuration not stated),i,>57
CN(C)c1ncnc2c1ncn2CCn1cnc2c(N(C)C)ncnc21,i,x
CCOC(=O)c1c2n(c3c(NCc4ccccc4)ncnc13)CCCC2,i,x
CCC(Sc1ncccc1C(=O)O)C(=O)N1CCOCC1 (configuration not stated),i,>57
O=C(O)Cc1ccccc1C(=O)O,i,>57
CC(C)Sc1oc(-c2ccco2)nc1S(=O)(=O)c1ccc(F)cc1,i,>57

# (cont.)
SMILES,TsaE inh,PK Bst
CCCn1c(SCC(=O)Nc2ccccc2CC)nnc1C(C)C,i,>57
CCOC(=O)C1CCCN(c2ccc(NC(=O)c3snc4c(=O)[nH]cnc34)cc2)C1 (configuration not stated),i,>57
CCCCSc1nnc([C@H](CC(C)C)NC(=O)OC(C)(C)C)o1,i,>57
COc1nnc(-c2ccc(C(=O)N3C[C@@H]4C[C@H](C3)c3cccc(=O)n3C4)cc2)c2ccccc12,i,>11
Cc1ccc(N(CC(N)=O)C2SC(=O)NC2=O)cc1 (configuration not stated),i,>57
c1ccc(CSc2nnc3c4ccccc4c4ccccc4c3n2)cc1,i,x

# The list is partial; rates above refer to the full screens.
